Bioassay records deposited in PubChem BioAssay by several laboratories.
Mtb growth – M. tuberculosis H37Rv growth inhibitors, H37Rv strain (AID 1626) | M. tuberculosis H37Rv growth inhibition; higher % means a stronger effect | one-dose inhibition, % at 10 µM; IC50 in µM for titrated hits | 0.95% of 220,000 active;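 active = confirmed in a dose series; inconclusive = inhibition above 80% but not taken into the dose series; inactive = below 80% or under 30% at every dose of the series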;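 note: bacteria incubated seven days before Alamar blue readout; 0% = bacteria only wells and 100% = bacteria with antibiotic wells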
RecA splice inh – Mtb RecA intein splicing inhibitors, primary screen, biochemical, fluorescence, HTS; Protein RecA (Mycobacterium tuberculosis (strain ATCC 25618 / H37Rv)), P9WHJ3; cell-free RecA intein splicing; inhibition, %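 (about 9 µM by stock and volumes)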; 0.75% of 290,000 active; AID 2221, 2009; in the data active = inhibition above about 30%; inconclusive = no clear call, values can overlap the other calls;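 note: 0% = vehicle wells and 100% = reference inhibitor control wells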
Target sequence (P9WHJ3 whole entry, looked up, canonical isoform): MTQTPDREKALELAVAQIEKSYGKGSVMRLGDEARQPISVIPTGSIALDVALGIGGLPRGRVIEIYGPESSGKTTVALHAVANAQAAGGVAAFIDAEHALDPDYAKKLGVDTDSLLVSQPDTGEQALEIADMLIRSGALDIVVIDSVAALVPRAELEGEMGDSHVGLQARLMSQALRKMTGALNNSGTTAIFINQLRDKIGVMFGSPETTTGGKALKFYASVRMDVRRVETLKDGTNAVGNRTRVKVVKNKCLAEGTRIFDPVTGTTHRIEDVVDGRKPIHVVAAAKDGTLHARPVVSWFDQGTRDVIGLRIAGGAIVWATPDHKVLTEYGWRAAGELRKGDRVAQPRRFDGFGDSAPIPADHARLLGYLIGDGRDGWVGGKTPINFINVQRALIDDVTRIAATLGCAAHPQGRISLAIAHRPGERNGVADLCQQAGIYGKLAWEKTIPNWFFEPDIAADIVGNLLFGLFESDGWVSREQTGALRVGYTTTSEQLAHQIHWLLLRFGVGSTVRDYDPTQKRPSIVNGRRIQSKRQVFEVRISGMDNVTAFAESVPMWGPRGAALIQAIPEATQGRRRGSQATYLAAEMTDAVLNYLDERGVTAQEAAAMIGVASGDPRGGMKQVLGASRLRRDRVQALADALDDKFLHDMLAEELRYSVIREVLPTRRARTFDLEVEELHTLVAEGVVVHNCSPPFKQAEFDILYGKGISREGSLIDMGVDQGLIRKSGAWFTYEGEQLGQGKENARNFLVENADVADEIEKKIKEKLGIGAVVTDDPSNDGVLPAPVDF
Arbovirus inh – antivirals against arbovirus infection, primary screen, cell-based, full library, 10K replicate subset; arbovirus infection cell-based antiviral screen; inhibition, % at 10 µM; 0.37% of 200,000 active;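 active = inhibition from about 30%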;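 note: bluetongue infection of BSR cells; cell survival read as ATP light after 72 h; 0% = infected wells without compound and 100% = uninfected wells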
Mtb betalactam – beta-lactam sensitization of Mtb H37Rv, H37Rv; M. tuberculosis H37Rv growth with meropenem, percent inhibition; hits of this screen are not shown here; inhibition, % at 25 µM; 0.27% of 330,000 active; AID 434955, 2010;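 active = about 74% or more and at least 40 points above the plate without the antibiotic, then above 30% in a dose series; inconclusive = first-round hits that could not be retested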;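 note: growth measured after seven days incubation then overnight dye step; 0% = bacteria only wells and 100% = bacteria with antibiotic; twin plates without the antibiotic show which effects depend on it; some results filed as inactive read as strong as hits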
YopH PTP inh – YopH tyrosine phosphatase inhibitors, primary screen, biochemical, fluorescence Ex485/Em525; YopH tyrosine phosphatase [Yersinia enterocolitica]; inhibition, %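 (about 10 µM by stock and volumes)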; 0.16% of 140,000 active; AID 898, 2007;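 active = inhibition of 50% or more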;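 note: controls were vehicle for no effect and minimum signal wells for full effect; inactives centre near -20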
Arbovirus inh repeat – recorded beside Arbovirus inh, whose call it bears; inhibition, %; measured here: 10K subset replicate screen; many hits read low in the repeat;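 first of two repeat runs on a subset; 0% = infected and 100% = uninfected wells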
An asterisk follows results filed as active; ? = inconclusive; . = not tested or not shown. Not all compounds are listed; the hit share may differ from the screen's.

SMILES | Mtb growth | RecA splice inh | Arbovirus inh | Mtb betalactam | YopH PTP inh | others
CCC(=O)Nc1cc(-c2nn(C)c(=O)c3ccccc23)ccc1OC | 3.6% | 1.5 | -2.3 | 41.9 | -28.8
N#CC12COC3(CCCCC3C1(C#N)C#N)OC2=N (centres undefined) | -11.6% | -277.3 | . | 35.6 | .
Nc1nnc(Cc2c[nH]c3ccccc23)s1 | 2.1% | 3.2 | 0.4 | -3.9 | -31.4
O=C1CC(N2CCN(CCc3ccccn3)CC2)C(=O)N1c1ccc(Cl)cc1 (centres undefined) | -4.8% | 1.2 | 3.2 | -3.6 | -7.1
Cc1ccc(C)c(NC(=O)CCN2C(=O)[C@@H]3Cc4ccccc4CN3C2=O)c1 | . | 1.8 | . | 1.5 | .
CCCCC1CCC(C(=O)N(CCCC)c2c(N)n(CCCC)c(=O)[nH]c2=O)CC1 (centres undefined) | . | -0.1 | . | -5.4 | .
O=C(Nc1ccc2c(c1)CCC2)c1c(F)cccc1Cl | 0.4% | 0.9 | 14.7 | -1.5 | .
N#Cc1nc(-c2ccccc2Cl)oc1NCc1ccco1 | 13.4% | 7.1 | -2.1 | 1.5 | -12.5
Cc1cc(N2CCN(C)CC2)nc(N2CCOCC2)n1 | -3.8% | 2.7 | 11.4 | -6.8 | -25.2
COc1ccc(-n2nc3c(c2NC(=O)c2ccc(S(=O)(=O)N4CCOCC4)cc2)CS(=O)(=O)C3)cc1 | 2.3% | -2.2 | -3.5 | -2.2 | .
COC(=O)c1cc(OC)c(OC)cc1NC(=O)c1cc(C(C)(C)C)oc1C | -11.7% | 7.7 | . | -2.7 | .
CCCc1cc2nnc(SCC(=O)N(C)C3CCCCC3)n2c(N)n1 | . | 1.7 | . | 8.1 | .
COC(=O)c1ccc(CC(=O)c2c(C)cc(O)cc2O)o1 | -7.5% | -1.9 | 9.8 | 4.6 | -25.9
Cc1cc(C(F)(F)F)c(C#N)c(SCC(=O)NC2CC2)n1 | -8.0% | -1.0 | -5.4 | -11.0 | -40.1
Cc1ccc2c(c1)[nH]c1c(=O)n(CCC3=CCCCC3)cnc12 | -3.8% | . | -3.4 | . | -23.2
COc1cc(Br)c(C2CC(=O)Nc3cc(OC)c(OC)cc32)cc1OC (centres undefined) | . | -2.5 | . | -3.3 | .
O=S(=O)(Nc1ccc(Cc2ccncc2)cc1)c1ccc(Cl)c(Cl)c1 | 1.2% | -6.7 | 0.5 | -5.2 | -23.0
CCOC(=O)N1CCN(C(c2ccccc2)c2sc3nc(C)nn3c2O)CC1 (centres undefined) | 14.1% | -0.8 | -4.6 | 0.4 | -160.2
CCOC(=O)c1sc2ncnc(N3CCN(c4ccc(OC)cc4)CC3)c2c1C | 1.9% | 1.1 | 1.1 | -0.2 | -40.9
Cc1ccc(S(=O)(=O)Nc2cccc(C(=O)NCC3CCCO3)c2)cc1F (centres undefined) | . | -4.2 | . | 1.9 | .
CN(C)CCCNC(=O)CCC1CCCCC1 | -4.5% | -1.0 | -1.0 | -20.3 | -25.1 | Arbovirus inh repeat=0.4
CCn1c(=O)c2ccccc2n2c(SCC(=O)N3CCc4ccccc4C3)nnc12 | 2.0% | 1.2 | 5.5 | -0.4 | 2.8
COc1ccc(N(C(=O)c2ccco2)C(C(=O)NC2CCCC2)c2cc(OC)c(OC)c(OC)c2)cc1 (centres undefined) | . | 1.6 | . | -1.7 | .
COc1ccccc1N1CCN(C(=O)COc2ccc(Cl)cc2Br)CC1 | -5.3% | 11.9 | -18.0 | 18.4 | -27.8
COc1ccc(C(=O)n2cc(C(=O)c3cc(C)ccc3O)cn2)cc1 | 2.9% | 19.0 | -3.6 | -0.9 | -18.6
SMILES | Mtb growth | RecA splice inh | Arbovirus inh | Mtb betalactam | YopH PTP inh | others
CC(C)CC(CO)N1CCN(C(=O)c2cccc(C(F)(F)F)c2)CCC1=O (centres undefined) | -10.5% | 1.2 | -1.5 | -9.0 | -5.7
CCc1ccc(OCc2ccc(C(=O)OC)o2)cc1 | . | 5.7 | . | -0.9 | .
COc1ccc(NC(=S)N(CCN(C)C)Cc2cccs2)cc1 | -3.2% | -0.1 | 5.8 | 0.1 | .
CCOC(=O)c1c(NC(=O)CC2SC(=NC)N(C)C2=O)sc(C)c1C (centres undefined) | 0.7% | 0.4 | -12.8 | -14.9 | -21.5
Cc1ccc(/C=C/C(=O)OCC(=O)N2CC(=O)Nc3ccccc32)o1 | 1.3% | 6.5 | 2.3 | 0.5 | .
CCOCCCNC(=O)c1ccc2c(c1)ncn2-c1ccc(C)cc1C | . | -1.0 | . | 4.3 | .
CN(C)C(=O)C(OC(=O)c1ccc2c(c1)CCCC2)c1ccccc1 (centres undefined) | . | 4.3 | . | -7.5 | .
O=C(NCCCN1CCOCC1)c1ccc(N2CCCC2)c([N+](=O)[O-])c1 | -8.4% | 4.1 | 1.9 | 0.5 | .
O=C(Nc1nc2ccccc2n1Cc1ccccc1)c1ccco1 | ? | -0.4 | -10.1 | 92.8 | 6.1
O=C(c1ccc(NC(=S)NCc2ccc(Cl)cc2)cc1)N1CCCCC1 | -9.4% | -0.5 | -8.7 | -2.0 | .
COc1ccc(NS(=O)(=O)c2ccc3oc(SCc4ccc(F)cc4)nc3c2)cc1 | 12.9% | 14.8 | -19.8 | 8.0 | -25.3
CCOc1ccc(Cl)cc1CN1CCOCC1 | 5.0% | -0.4 | 8.6 | -6.1 | -17.1
O=C(COc1ccc(S(=O)(=O)N2CCOCC2)cc1)NC1CCCC1 | 3.3% | 0.5 | -0.4 | -6.4 | -38.6
COC(CNC(=O)CN1CCN(Cc2ccccc2F)C1=O)OC | . | -1.1 | . | -3.6 | .
Cc1cc(C)n(Cc2ccccc2)c(=O)c1S(=O)(=O)c1ccccc1 | 2.3% | -0.4 | -0.9 | 0.2 | -20.9
O=C(CSC1=NC2(CCCCCC2)N=C1c1ccccc1)Nc1ccc2c(c1)OCCO2 | . | 13.5 | -1.2 | 3.0 | -29.2
CCCCCCn1c(CN2CCCCC2CC)nc2c1c(=O)n(C)c(=O)n2C (centres undefined) | 12.2% | 3.1 | -18.3 | 6.6 | -8.8
O=C(Nc1ccc(F)cc1F)C1CCN(C(=O)c2ccc(Br)cc2)CC1 | 5.3% | -0.6 | 0.9 | 3.8 | .
COc1cccc(C(=O)Nc2cc(C(F)(F)F)ccc2Cl)c1 | 2.5% | 7.3 | -6.3 | 1.3 | -21.3
CCOc1ccccc1NC(=O)Cn1nnc(-c2ccc(OCC)c(OCC)c2)n1 | -8.8% | -1.0 | -21.3 | -8.0 | -19.5
Cc1nc2cc(NC(=O)N(C)c3ccc4ccccc4c3)ccc2o1 | 2.7% | . | -2.6 | -5.5 | -25.4
COc1ccc(N(CC(=O)NC2CCCCCCC2)S(=O)(=O)c2c(C)nn(C)c2C)cc1 | 10.1% | -0.6 | -6.0 | -3.3 | -42.1 | Arbovirus inh repeat=-3.7
OCCC1CN(Cc2cccc(-n3cccn3)c2)CCN1Cc1ccccc1 (centres undefined) | -1.7% | 0.8 | 5.3 | 1.1 | .
Cc1ccccc1-c1nc(CN2CCC(C(=O)NCc3cccs3)CC2)c(C)o1 | -4.1% | 2.8 | -0.9 | -2.1 | -23.9
COc1ccc(CN2CCCC(CNC(=O)c3ccc(F)cc3)C2)c(F)c1 (centres undefined) | 2.0% | 4.2 | -7.8 | -1.5 | .

As a short view, part of the list above.
SMILES | Mtb growth | RecA splice inh | Arbovirus inh | Mtb betalactam | YopH PTP inh | others
CC(C)CC(CO)N1CCN(C(=O)c2cccc(C(F)(F)F)c2)CCC1=O (centres undefined) | -10.5% | 1.2 | -1.5 | -9.0 | -5.7
CCc1ccc(OCc2ccc(C(=O)OC)o2)cc1 | . | 5.7 | . | -0.9 | .
COc1ccc(NC(=S)N(CCN(C)C)Cc2cccs2)cc1 | -3.2% | -0.1 | 5.8 | 0.1 | .
CCOC(=O)c1c(NC(=O)CC2SC(=NC)N(C)C2=O)sc(C)c1C (centres undefined) | 0.7% | 0.4 | -12.8 | -14.9 | -21.5
Cc1ccc(/C=C/C(=O)OCC(=O)N2CC(=O)Nc3ccccc32)o1 | 1.3% | 6.5 | 2.3 | 0.5 | .
CCOCCCNC(=O)c1ccc2c(c1)ncn2-c1ccc(C)cc1C | . | -1.0 | . | 4.3 | .
CN(C)C(=O)C(OC(=O)c1ccc2c(c1)CCCC2)c1ccccc1 (centres undefined) | . | 4.3 | . | -7.5 | .
O=C(NCCCN1CCOCC1)c1ccc(N2CCCC2)c([N+](=O)[O-])c1 | -8.4% | 4.1 | 1.9 | 0.5 | .
O=C(Nc1nc2ccccc2n1Cc1ccccc1)c1ccco1 | ? | -0.4 | -10.1 | 92.8 | 6.1
O=C(c1ccc(NC(=S)NCc2ccc(Cl)cc2)cc1)N1CCCCC1 | -9.4% | -0.5 | -8.7 | -2.0 | .
COc1ccc(NS(=O)(=O)c2ccc3oc(SCc4ccc(F)cc4)nc3c2)cc1 | 12.9% | 14.8 | -19.8 | 8.0 | -25.3
CCOc1ccc(Cl)cc1CN1CCOCC1 | 5.0% | -0.4 | 8.6 | -6.1 | -17.1

Going on with the list.
SMILES | Mtb growth | RecA splice inh | Arbovirus inh | Mtb betalactam | YopH PTP inh | others
CCSc1nnc(NC(=O)/C=C/c2ccco2)s1 | -3.3% | . | -1.1 | -6.6 | .
O=C(O)C1CC=CCC1C(=O)NC1CCCCC1 (centres undefined) | -10.0% | -2.4 | 1.7 | -5.2 | .
COc1cccc(NC(=O)C2C3CCC4C(CCC32)C4(Cl)Cl)c1 (centres undefined) | 7.2% | 0.1 | -1.6 | -2.6 | -10.6
CC(OC(=O)c1ccc(NC(=O)CC#N)cc1)C(=O)Nc1nc(-c2ccccc2)cs1 (centres undefined) | . | 7.5 | . | -5.8 | .
Cc1ccc2nc(Nc3nc(C)cc(-c4ccccc4)n3)[nH]c(=O)c2c1 | -10.0% | 1.9 | . | -3.5 | .
C/C(=N\NS(=O)(=O)c1ccccc1)c1cc(Cl)cc(Cl)c1O | -5.5% | -0.8 | 13.8 | -6.5 | .
CCOC(=O)C(C)Sc1ncc(-c2ccc(Cl)cc2)cn1 (centres undefined) | 2.71µM* | 7.0 | -0.4 | 99.4 | -24.4
COc1ccc(-c2csc3nc(C)nc(N4CCCCC4)c23)cc1OC | 6.5% | 12.6 | -2.1 | 2.3 | .
CN(C)CCCCOc1ccc(F)cc1 | 0.5% | 1.4 | 6.1 | -1.6 | .
C=CCN=C1CC(C)(C)C(C(=O)OC)C(O)=C1C(=O)CCC (centres undefined) | -17.4% | -0.4 | -0.7 | -3.0 | .
CS/C(=C\[N+](=O)[O-])Nc1ccc(Cl)cc1 | 3.6% | 41.9* | -24.0 | 82.1 | -0.5
CCn1c(CNC(=O)c2ccc(OC)c(OC)c2)nnc1SCC(=O)Nc1ccc(OC)cc1 | -0.2% | 0.3 | 5.8 | -2.7 | -18.6
CCc1ccc(Nc2ccc3nonc3c2[N+](=O)[O-])cc1 | . | 5.5 | . | 32.3 | .
C/C(=C\C(=O)c1ccc(Br)cc1)NCc1ccc2c(c1)OCO2 | -0.3% | -0.3 | 2.8 | 49.7 | -51.8
CCCCSc1nc(C)nc2c1c(=O)n(C)c(=O)n2C | 3.6% | 5.1 | -13.3 | -1.4 | -46.0
CC1CN(S(=O)(=O)c2cc(C(=O)NCCC3=CCCCC3)ccc2Cl)CC(C)O1 (centres undefined) | . | 0.6 | . | -5.3 | .
CC(C)(C)c1cc(=O)n2[nH]c(N)nc2n1 | -2.8% | -0.2 | 9.6 | -6.4 | .
CN(CC(=O)NC1CC(C)(C)NC(C)(C)C1)S(=O)(=O)c1cc(Cl)ccc1Cl | 0.1% | 0.1 | 3.7 | 4.1 | .
O=C(Nc1ccccc1)c1ccc(Nc2c([N+](=O)[O-])cc([N+](=O)[O-])c3ccccc23)cc1 | 9.1% | 2.9 | 8.9 | 2.1 | -31.6
Cc1csc(NC(=O)c2ccc3ccccc3n2)n1 | . | 5.0 | . | 94.8 | .
COc1ccc(N2CCN(C(=O)CSc3nnc(COc4cccc5cccnc45)o3)CC2)cc1 | 3.1% | 5.0 | 11.4 | 1.7 | -23.6
Cc1cc(=O)[nH]c2nnnn12 | -7.9% | 0.0 | . | -8.5 | .
O=c1[nH]c(-c2ccccc2)nc2sc(-c3ccccc3)cc12 | 0.7% | -1.2 | -14.8 | -0.8 | .
CCOC(=O)CN(C)Cc1cn(C)nc1-c1ccc(Oc2ccccc2)cc1 | . | 2.5 | . | 1.0 | .
